PV pol inh: inhibitors of poliovirus RNA polymerase binding and polymerization. P03300. poliovirus polymerase elongation, fluorescence polarization; stronger effect = lower value. % elongation, % (compound at 16.7 µg/mL). 0.66% of 150,000 active. AID 588519; in the data active = % elongation below about 90%; note: some results filed as inactive read as strong as hits
Target sequence (P03300 1749-2209 limits assumed): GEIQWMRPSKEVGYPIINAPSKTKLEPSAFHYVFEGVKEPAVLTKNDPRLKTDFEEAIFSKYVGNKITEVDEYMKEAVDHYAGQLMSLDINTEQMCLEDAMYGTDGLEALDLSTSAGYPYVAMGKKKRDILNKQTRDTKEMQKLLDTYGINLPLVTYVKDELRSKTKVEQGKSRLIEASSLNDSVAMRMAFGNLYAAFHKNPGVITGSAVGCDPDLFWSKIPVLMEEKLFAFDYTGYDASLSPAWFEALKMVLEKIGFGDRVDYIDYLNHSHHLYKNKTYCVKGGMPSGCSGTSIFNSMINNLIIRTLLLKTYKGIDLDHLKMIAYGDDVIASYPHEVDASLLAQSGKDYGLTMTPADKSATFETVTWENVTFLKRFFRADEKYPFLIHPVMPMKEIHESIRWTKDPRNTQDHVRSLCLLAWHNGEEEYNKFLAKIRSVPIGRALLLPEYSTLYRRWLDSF
MbtI inh: blocks the Mycobacterium tuberculosis siderophore enzyme MbtI; P9WFX0; purified MbtI enzyme, fluorescence intensity read-out; inhibition, %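 (about 17 µg/mL by stock and volumes)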; 0.89% of 100,000 active;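 active = above 50% in both replicates, above 80% if mildly self-fluorescent; inactive = the rest, strongly fluorescent compounds included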;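 note: 0% = mean of negative and 100% = mean of positive controls; one replicate is shown; some compounds called inactive have numbers as strong as hits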
MenB inh: inhibitors of Mycobacterium tuberculosis MenB enzyme; P9WNP5; MenB enzyme assay, absorbance read-out; some hits fall short of the stated cut; inhibition, %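 (about 12 µg/mL by stock and volumes)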; 0.43% of 100,000 active;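 active = mean of two replicates above 30%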;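 note: 0% = no compound and 100% = wells with inactive enzyme; the first replicate is given; strong numbers were not always called active; inactives centre near -10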
Target sequence (P9WNP5 whole entry, looked up): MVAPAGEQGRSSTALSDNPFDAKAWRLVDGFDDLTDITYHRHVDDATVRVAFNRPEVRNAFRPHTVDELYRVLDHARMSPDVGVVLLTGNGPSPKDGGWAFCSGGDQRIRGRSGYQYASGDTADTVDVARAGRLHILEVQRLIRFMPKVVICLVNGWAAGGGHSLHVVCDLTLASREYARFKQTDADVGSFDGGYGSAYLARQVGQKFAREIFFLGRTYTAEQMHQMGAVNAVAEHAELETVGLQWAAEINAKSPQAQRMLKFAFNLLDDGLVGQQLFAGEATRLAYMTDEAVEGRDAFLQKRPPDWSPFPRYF
PV pol inh intensity: recorded beside PV pol inh, whose call it bears; % elongation; measured here: total intensity read-out; formula for this scale not given here;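 total fluorescence in place of polarization; lower means less elongation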
The depositor's hits bear a star; i = inactive; x = not tested or not shown; & = joins results of further samples.

mol | PV pol inh | MbtI inh | MenB inh | PV pol inh intensity
CCCc1nc2nc(C)cc(Cl)n2n1 | 104 | 6 | 5 | 104
COC(=O)C1=C(C)NC(SCC(=O)c2cccs2)=C(C#N)C1c1ccc2c(c1)OCCO2 (configuration not stated) | 105 | x | -23 | 109
COc1cccc(C2(O)CCN(C(=O)C3CCC3)CC2)c1 | 100 | 6 | 6 | 102
O=C1c2ccccc2C(=O)N1C1CCCCC1N1C(=O)c2ccccc2C1=O (configuration not stated) | 97 | 0 | -6 | 102
Cc1ccccc1Nc1nc(N)nc(COC(=O)CCN2C(=O)C3CC=CCC3C2=O)n1 (configuration not stated) | 109 | -6 | -12 | 113
Cc1cnc(NC(=O)C(C)N2CCN(C)CC2)s1 (configuration not stated) | 99 | -10 | -18 | 100
COc1cc(C(=O)OCC(=O)NC2CCS(=O)(=O)C2)ccc1OCc1c(C)noc1C (configuration not stated) | 98 | -3 | -59 | 96
Cc1ccc(Cn2c(=O)cc(C(=O)NC3CCCCC3)c3ccccc32)cc1 | 101 | 12 | 9 | 104
CC(C)c1ccc(-c2ncc(CSc3nnc(CN4CCCCCC4=O)o3)s2)cc1 | 104 | -9 | -30 | 102
C=CCNC(=O)c1cc2cccc(OC)c2oc1=O | 100 | 5 | -2 | 101
O=C(O)CCNS(=O)(=O)c1ccc2ccccc2c1 | 105 | x | -22 | 110
O=C(NCCC1=CCCCC1)C1CC(O)CN1C(=O)Nc1ccccc1 (configuration not stated) | 101 | -3 | 23 | 101
COc1ccc(/C=C2/C(=O)c3ccc(C(=O)O)cc3C2=O)cc1OC | 103 | 10 | -18 | 110
CCOC(=O)c1c(-c2ccc(Cl)cc2)nn2c1NCN(Cc1cccc(OC)c1)C2 | 100 | -2 | 8 | 103
CCOc1ccc(NC(=O)COC(=O)CCC2CCCCC2)cc1 | 101 | -5 | x | 100

Exported field by field: 4 of the compounds above.
> CCCc1nc2nc(C)cc(Cl)n2n1
  PV pol inh: 104 | MbtI inh: 6 | MenB inh: 5 | PV pol inh intensity: 104
> COC(=O)C1=C(C)NC(SCC(=O)c2cccs2)=C(C#N)C1c1ccc2c(c1)OCCO2 (configuration not stated)
  PV pol inh: 105 | MbtI inh: x | MenB inh: -23 | PV pol inh intensity: 109
> COc1cccc(C2(O)CCN(C(=O)C3CCC3)CC2)c1
  PV pol inh: 100 | MbtI inh: 6 | MenB inh: 6 | PV pol inh intensity: 102
> O=C1c2ccccc2C(=O)N1C1CCCCC1N1C(=O)c2ccccc2C1=O (configuration not stated)
  PV pol inh: 97 | MbtI inh: 0 | MenB inh: -6 | PV pol inh intensity: 102

The listing continues:
mol | PV pol inh | MbtI inh | MenB inh | PV pol inh intensity
CC1CCCCC1NC(=O)C1CCN(C(=O)c2cc3sccc3n2Cc2ccc(F)cc2)CC1 (configuration not stated) | 101 | 1 | -2 | 100
O=C(CSc1nncs1)NC1CCCc2ccccc21 (configuration not stated) | 108 | 12 | 12 | 103
CCC1(C)CC(=O)N(c2ccc(C(=O)O)c(O)c2)C1=O (configuration not stated) | 102 | 108 | 27 | 101
O=C(Nc1ccc(S(=O)(=O)Nc2ccccc2Oc2ccc(Cl)cc2Cl)cc1)C1CC1 | 103 | 2 | -7 | 94
COC(=O)c1ccc(COC(=O)CCc2nc3ccccc3s2)o1 | 102 | -9 | -7 | 105
CCOc1cc(/C=C/C(=O)C2C(=O)C=C(C)OC2=O)ccc1OC (configuration not stated) | 136 | 8 | -25 | 151
O=C(c1ccco1)N(Cc1ccccc1O)c1ccc(Cl)cc1 | 103 | 2 | -39 | 99
CC(C)C[C@@H](C=O)NC(=O)[C@H](CC(C)C)NC(=O)[C@H](CC(C)C)NC(=O)OCc1ccccc1 | 98&99 | -10 | -3 | 103&102
CN1C(=O)c2ccc(C(=O)NCc3ccccc3)cc2C1=O | 103 | 1 | 4 | 103
CC1(C)CC(=O)C=C(Sc2nc3cc(Cl)ccc3s2)C1 | 103 | -4 | 5 | 105
CCn1c(SCC(=O)Nc2cccc(Cl)c2Cl)nc2ccccc2c1=O | 104 | x | -10 | 106
O=C(/C=C/c1ccccc1)N1CCCC1 | 100 | 10 | 6 | 101
Cc1cc(SCC(N)=O)n2c(nc3ccccc32)c1C#N | 121 | -6 | -17 | 131
CCCSc1nc2ccccc2c(=O)n1-c1ccccc1F | 104 | -6 | x | 99
CCOc1ccc(NC(=O)CCC(=O)n2nc(-c3ccccc3)cc2-c2ccccc2)cc1 | 100 | x | 3 | 98
CCN(CC)CC#CCN1c2ccccc2Sc2ccccc21 | 100 | -4 | -13 | 104
CC(=O)Nc1ccc(C(=S)NCC(c2ccco2)N2CCCCC2)cc1 (configuration not stated) | 107 | 64 | -18 | 114
CC1CN=C(N(C(=O)Nc2ccccc2)c2ccc(OC(F)(F)F)cc2)S1 (configuration not stated) | 102 | x | -5 | 99
COC(=O)/C=c1\sc2nc(N)nn2c1=O | 101 | -1 | 12 | 101
CC(=O)N/C(=C\c1ccccc1)C(=O)NC1CCCCC1C (configuration not stated) | 102 | -11 | -8 | 98
CN(Cc1ccccc1)C(=O)CSc1cc(=O)n(C)c2ccccc12 | 104 | 53 | -37 | 101
CC12CCC(C(=O)N3CCc4ccccc43)(CC1=O)C2(C)C (configuration not stated) | 100 | -12 | -8 | 103
O=C(Cc1c(F)cccc1Cl)OCC(=O)c1ccc2c(c1)OCO2 | 106 | -5 | -29 | 99
COc1ccc(-c2cc(=O)c3c(O)cc(O)cc3o2)cc1 | 101&102 | -15&-16 | -5&-11 | 100&102
O=C(c1ccc(O)cc1)N1N=CCC1(O)C(F)(F)F (configuration not stated) | 109 | 23 | -45 | 113
Cc1ccc(C(=O)CN2CCCC(C)C2)cc1 (configuration not stated) | 108 | 189 | -13 | 109
Cc1cc(Cn2cnc3ccccc3c2=O)no1 | 107 | -6 | -3 | 113
C=CCC1(Nc2ccccc2)CCCCC1 | 100 | x | -13 | 107
CCOc1ccc(C(=O)C(C)Sc2nnnn2-c2ccc(OC)cc2)cc1 (configuration not stated) | 105 | -9 | -24 | 109
CN(Cc1ccccc1)C(=O)CNc1cccc(C#N)c1 | 103 | -29 | x | 108
CC(NC(=O)c1ccco1)C(=O)NCc1ccccc1CN(C)C (configuration not stated) | 107 | -6 | -8 | 107
O=C(CC(c1ccccc1)c1ccccc1)NCc1ccco1 | 108 | 1 | -69 | 98
O=C(Nc1ccncc1)c1ccc(C(=O)c2ccccc2)cc1 | 101 | -9 | x | 101
COc1ccc(CCN2C(=O)CN=C2Nc2ccc(F)cc2)cc1OC | 100 | -10 | -62 | 100
CC(C(=O)NCc1ccc2c(c1)OCO2)n1ccc2cc(S(=O)(=O)N3CCCCCC3)ccc21 (configuration not stated) | 105 | -9 | -26 | 102
COc1cccc(-c2n[nH]c3c2C(c2ccccc2)NC3=O)c1 (configuration not stated) | 99 | -1 | -46 | 104
Cc1cc(C)c(NC(=O)CSc2nc3c(c(-c4ccco4)c2C#N)CCCC3)c(C)c1 | 104 | 10 | -5 | 103
Cc1cc(-c2csc(N)n2)c(C)s1 | x | 0 | 13 | x
CC(C)N(C(=O)Cc1c(O)c2ccccc2[nH]c1=O)C(C)C | 100 | -36 | -11 | 104
Cc1cc2c(=O)n(Cc3ccco3)c(SCC(=O)c3cccs3)nc2s1 | 99 | 8 | 10 | 101
Cc1ccc(C(=O)Cn2cnc3c2c(=O)n(C)c(=O)n3C)cc1 | 100 | 9 | 10 | 104
COc1ccc(CCn2c(C)cc(C(=O)COC(=O)c3cccc(-n4cnnn4)c3)c2C)cc1 | 101 | -10 | -12 | 100
CCCCC12CN3CCN(CC(C3)C1=N/N=C1\C3CN4CCN(C3)CC1(CCCC)C4)C2 | 102 | -24 | -22 | 102
Cc1cnc(N(C(=O)c2c(-c3ccccc3)noc2C)C(=O)c2c(-c3ccccc3)noc2C)c(C)n1 | 104 | 96 | -7 | 110
CCOc1ccccc1NC(=O)CSc1nc(O)cc(=O)n1C1CCCC1 | x | 29 | -125 | x
CCC1CCCCN1C(=O)c1cc2cc(OC)ccc2oc1=O (configuration not stated) | 104 | 90 | -17 | 100
Nc1ccc(OCC(=O)N2CCOCC2)cc1 | 101 | x | -13 | 107
COc1cccc(-n2c(SC3CCOC3=O)nc3ccccc3c2=O)c1 (configuration not stated) | 98 | 1 | -13 | 100
Cc1cc(C(=O)NC2CCSc3ccccc32)no1 (configuration not stated) | 108 | -4 | -25 | 108
CC(=O)Oc1c(Br)c(=O)[nH]c2ccccc12 | 104 | 59 | -2 | 104
O=C(Cn1cnc2c(nnn2-c2cccc(Cl)c2)c1=O)NCC1CCCO1 (configuration not stated) | 101 | 11 | -13 | 98
O=C(NC1CCCC1)C1CCN(C(=O)c2sccc2-n2cccc2)CC1 | 102 | 1 | 1 | 103
CC(C)=CC(=O)Nc1nc2ccc(C)cc2s1 | 101 | -19 | -10 | 102
CCOC(=O)c1ccc(NC(=O)CCN2N=C(c3ccccc3)CCC2=O)cc1 | 100 | -6 | -7 | 101
Cc1cc2cc(CNC(=O)CC(C)(C)C)ccc2[nH]1 | 104 | -5 | -12 | 106
CSc1s[nH]c(=O)c1C#N | 86* | x | 9 | 95*
O=C1Nc2ccccc2S/C1=C/c1ccc(C(=O)N2CCC3(CC2)OCCO3)cc1 | 101 | -40 | -66 | 101
O=C(NCc1ccc(Cl)cc1)c1ccc2c(c1)[nH]c(=S)n1c3ccccc3nc21 | 105 | 25 | -18 | 103
CCCC(CC(=O)N1CCN(c2ccccc2Cl)CC1)n1ccnc1 (configuration not stated) | 105 | 4 | -7 | 110
CN1CCC(N(C)C(=O)C23CC4CC(CC(C4)C2)C3)CC1 | 103 | -17 | x | 106

Other results.
mol | PV pol inh | MbtI inh | MenB inh | PV pol inh intensity
CC(=O)Nc1ccccc1C(=NC1CCCCC1)C(=O)NC1CCCCC1 | 106 | 10 | 2 | 99
c1ccc(-c2nnc(C3CC3)nc2-c2ccccc2)cc1 | 102 | -8 | -11 | 109
C/C(N)=C(/C#N)C(=O)CSc1cc(C)c(C#N)c2nc3ccccc3n12 | 100 | 4 | 5 | 116
O=C(COc1coc(CN2CCc3ccccc32)cc1=O)NC1CCCC1 | 105 | 10 | -2 | 104
Cn1nc(C(C)(C)C)cc1N | 108 | -13 | -21 | 114
FC(F)(F)C1NCCc2c1[nH]c1ccccc21 (configuration not stated) | 100 | -11 | 4 | 113
CC1CCN(C(=O)/C=C/c2ccc3c(c2)OCO3)CC1 | 102 | 15 | 0 | 106
CC(C)c1ccc(NC(=O)NC(=O)c2ncon2)cc1 | 99 | 4 | 18 | 103
CCOC(=O)c1cc(-c2csc(CS(=O)(=O)Cc3cccc(C(F)(F)F)c3)n2)on1 | 101 | -23 | -7 | 102
O=C1CCCC/C1=C/NCc1ccccc1 | 100 | -6 | -11 | 104
CC(C)(C)NC(=O)N1CCC(C(N)=O)CC1 | 100 | -7 | -4 | 101
Cc1ccccc1CN1CCN(CC(=O)NCCc2ccc(Cl)cc2)C1=O | 97 | 6 | -5 | 100
CCCCn1nnc2sc3c(c2c1=O)CCCC3 | 102 | 28 | 5 | 104
CCOc1ccccc1NC(=O)Cn1c(=O)oc2cc(S(=O)(=O)NC3CCCC3)ccc21 | 104 | -7 | -21 | 102
COc1cccc(N(C(=O)c2ccco2)c2nc3ccccc3s2)c1 | 109 | -27 | -23 | 112
CN(C)c1ccc(-c2nnc(-c3ccc(Cl)cc3)o2)cc1 | 100 | i | 14 | 101
CCOc1ncccc1C(=O)OCCN1C(=O)c2ccccc2C1=O | 106 | -10 | 3 | 108
CCCNC(=O)N1CCc2c([nH]c3ccccc23)C1c1ccccc1F (configuration not stated) | 101 | -17 | -13 | 101
CC(C)(C)C1CCC(C(=O)OCC(=O)c2ccc[nH]2)CC1 (configuration not stated) | 105 | -7 | -8 | 110
Cc1ccc(NC(=O)NC(=O)CSc2nnc(C)n2C2CCCCC2)c(C)c1 | 101 | -3 | -15 | 123
CCNCc1ccc(OCc2ccccc2)cc1 | 103 | 4 | -10 | 108
Cc1cc(C)cc(C(=O)OCC(=O)c2cc(C)n(C)c2C)c1 | 101 | -14 | -26 | 103
CCOc1ccc2oc(=O)cc(CN3CCN(C(=O)c4ccc5c(c4)OCO5)CC3)c2c1 | 101 | 3 | 7 | 99
CCOc1ccccc1C1C(C#N)=C(SCC(=O)N2CCCC2)NC2=C1C(=O)CCC2 (configuration not stated) | 113 | 9 | -15 | 118
CCc1ccc(NC(=O)N(C(C)C)C2CCN(C(C)=O)CC2)cc1 | 101 | 1 | -36 | 103
CCOC(=O)N1CCC(NC(=O)c2ccccc2C(=O)O)CC1 | 105 | -11 | -4 | 101
CC(NC(=O)C1CCCN(S(=O)(=O)c2cccc3nonc23)C1)c1ccccc1 (configuration not stated) | 104 | -6 | -11 | 109
Brc1ccc(CNc2ccc3c(c2)ncn3-c2ccccc2)cc1 | 101 | 30 | -60 | 96

In the list so far, 2 contain bromine.
mol | PV pol inh | MbtI inh | MenB inh | PV pol inh intensity
CC(=O)Oc1c(Br)c(=O)[nH]c2ccccc12 | 104 | 59 | -2 | 104
Brc1ccc(CNc2ccc3c(c2)ncn3-c2ccccc2)cc1 | 101 | 30 | -60 | 96

Screening data (PubChem)
